High-throughput results (PubChem)
D2 potentiator: Beta-Arrestin HTS for Positive Allosteric Modulators of the Human D2 Dopamine Receptor: Potentiators. D(2) dopamine receptor (Homo sapiens), P14416. potentiation, % (test concentration not listed). AID 624464, 2012. 0.23% of 360,000 active. DiscoveRx D2 beta-arrestin cells, luminescence, 90 min; 100% = 57 uM dopamine signal; active = potentiation of 50% or more; inconclusive = 30% to 50%; inactive = 30% or less;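 also: compound concentration not given in the record; tested on top of an EC20 dose of dopamine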
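D2 cells co-treated with compound plus 50 nM dopamine (EC20) for 90 min at 37 deg C to detect potentiation. Beta-arrestin recruitment was read as enzyme-fragment luminescence after 1 h at ambient temperature. Full response was set by 57 uM dopamine.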
gsp antagonist: qHTS for Antagonists of gsp, the Etiologic Mutation Responsible for Fibrous Dysplasia/McCune-Albright Syndrome: qHTS. 0.4% of 340,000 active. AID 624288, 2012. Potency, µM (doses to about 76.9 µM), for the others: at the top dose activity change, negative = inhibition, actives largely listed as inhibitors. gsp-mutant cells, cAMP HTRF, 30 min; control for the full effect not named in the record; active = falling curve of any shape with a large fitted effect; inconclusive = falling curve, mostly with a smaller effect; inactive = flat or rising curve; cell line not stated here;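 also: intracellular cAMP measured with PDE inhibitor Ro 20-1724 present during compound exposure; potency is read from the fitted curve at half-maximal effect; % is scaled to controls: 0 for no effect and ±100 for the full control effect; nearly all actives have a fitted effect of over 65% in size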
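Cells in G418 medium, seeded 16-24 h, 37C; buffer exchange to DPBS + 1 mM CaCl2, 0.5 mM MgCl2, 0.05% BSA; cpds in DMSO + […] (300 uM stock), 30 min 37C; HTRF cAMP detection.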
Menin-MLL FL inh: qHTS Assay for Inhibitors Targeting the Menin-MLL Interaction in MLL Related Leukemias: Competition With Fluorescein Labeled MLL-derived Peptide; Fluorescence polarization, fluorescein-MLL peptide displacement from menin; FP activity change, % at 61.4 µM; 290,000 tested, under 10 active; inconclusive = falling polarisation curve, or a change in total fluorescence; inactive = total fluorescence flat and polarisation flat or rising; no compound was filed as active; the % refers to the polarisation; negative = inhibition;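 also: % of control where 0% means no effect; inhibitors lower the polarisation; unlabelled MLL peptide was the positive control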
TRPV1 potentiator: HTS Assay for Compounds that Act as Potentiators of the Vanilloid Receptor 1. TRPV1-expressing cells, Fluo-8 calcium influx, capsaicin EC20 potentiation; host cell line not named in the record; control for the full effect not named in the record. Transient receptor potential cation channel subfamily V member 1 (Homo sapiens), Q8NER1. potentiation, % at 8.33 µM. 0.02% of 320,000 active. AID 540277, 2011; active means potentiation above 80%; inconclusive means 30% to 80%; inactive means below 30%; also: 0% is about no effect
Target sequence (Q8NER1 whole entry, looked up): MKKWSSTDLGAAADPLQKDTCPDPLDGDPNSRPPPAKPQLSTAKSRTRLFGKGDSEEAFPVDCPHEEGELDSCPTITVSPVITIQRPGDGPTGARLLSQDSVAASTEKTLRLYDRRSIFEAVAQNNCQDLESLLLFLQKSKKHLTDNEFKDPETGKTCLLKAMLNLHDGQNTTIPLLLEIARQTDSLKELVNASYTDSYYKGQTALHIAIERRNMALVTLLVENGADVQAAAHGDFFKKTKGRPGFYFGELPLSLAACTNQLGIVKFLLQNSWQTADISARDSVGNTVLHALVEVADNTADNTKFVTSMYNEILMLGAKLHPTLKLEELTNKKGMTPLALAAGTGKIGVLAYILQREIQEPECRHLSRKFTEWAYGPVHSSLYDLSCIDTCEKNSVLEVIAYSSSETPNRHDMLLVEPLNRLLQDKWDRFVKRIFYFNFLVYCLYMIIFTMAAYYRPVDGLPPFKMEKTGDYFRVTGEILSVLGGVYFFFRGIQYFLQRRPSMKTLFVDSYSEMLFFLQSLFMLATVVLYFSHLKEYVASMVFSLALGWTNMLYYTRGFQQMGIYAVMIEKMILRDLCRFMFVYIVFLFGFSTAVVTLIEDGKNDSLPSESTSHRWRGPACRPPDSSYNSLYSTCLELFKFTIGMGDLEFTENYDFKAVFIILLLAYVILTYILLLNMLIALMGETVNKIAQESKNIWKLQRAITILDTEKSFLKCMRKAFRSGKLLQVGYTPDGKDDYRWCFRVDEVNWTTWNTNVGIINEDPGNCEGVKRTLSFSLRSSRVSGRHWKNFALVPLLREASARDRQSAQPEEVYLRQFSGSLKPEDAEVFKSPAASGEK
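Cells expressing TRPV1 were dye-loaded with Fluo-8 and read kinetically: 10 s baseline, 3 min after compound (agonist portion), then 2 min after EC20 capsaicin (allosteric enhancer portion). Calcium-bound dye fluorescence at 480/520 nm.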
gsp agonist: qHTS for Agonist of gsp, the Etiologic Mutation Responsible for Fibrous Dysplasia/McCune-Albright Syndrome: qHTS; 0.13% of 340,000 active; gsp mutant cells, cAMP HTRF, 30 min; control for the full effect not named in the record; Potency, µM (titrated, usually from 76.9 µM), without a hit: at the highest dose activation (cAMP increase), usual class: activators; active = well fitted activation curve with a large enough effect; inconclusive = small, poorly fitted or top-dose-only effect, or another doubt; inactive = no such curve, though single readings can be large or run the other way; cell line not stated here;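 also: phosphodiesterase inhibitor Ro 20-1724 added with compounds to block cAMP breakdown; potency is read from the fitted curve at half-maximal effect; nearly all actives have a fitted effect of over 60% in size; about a fifth of the inactives were tested at one dose only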
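Cells in DMEM/10% FBS with G418 were pretreated with compounds in DMSO plus […] (300 uM stock) for 30 min at 37C. cAMP was measured by HTRF (cAMP-d2 plus anti-cAMP antibody-K) after 30 min at room temperature.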
ClpP mod: qHTS Assay for Activators of ClpP | ATP-dependent Clp protease proteolytic subunit (Bacillus subtilis (strain 168)), P80244 | purified B. subtilis ClpP, FRET peptide cleavage, 20 min | Potency, µM (top dose mostly 57.5 µM), for the others: top-dose activity change, negative = active | 1.9% of 340,000 active | AID 651965, 2013; active = well fitted falling curve with a large enough effect; inconclusive = small, poorly fitted or top-dose-only effect; inactive = no such curve, though single readings can be large or run the other way; also: potency is read from the fitted curve at half-maximal effect; the source files actives as falling curves though it sought activators and does not explain the sign; nearly all actives have a fitted effect of over 65% in size; many hits overshoot -100%
Target sequence (P80244 whole entry, looked up): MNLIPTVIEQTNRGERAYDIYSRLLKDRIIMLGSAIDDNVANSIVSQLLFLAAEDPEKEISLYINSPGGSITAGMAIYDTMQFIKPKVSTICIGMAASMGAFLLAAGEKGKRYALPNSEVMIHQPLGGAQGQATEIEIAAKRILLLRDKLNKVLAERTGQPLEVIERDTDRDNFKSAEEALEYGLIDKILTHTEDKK
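Buffer: 100 mM Tris/HCl pH8, 100 mM KCl, 0.05% low protease BSA, 2.5% glycerol, 0.01% Tween-20. ClpP 10 microg/mL final; 20 min RT; delta FRET normalized to ADEP and DMSO controls.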
Sfp inh: qHTS Assay for Inhibitors of Bacillus subtilis Sfp phosphopantetheinyl transferase (PPTase); Potency, µM, for the others: max response, negative = inhibition, usual class: inhibitors; 3.5% of 310,000 active; 4'-phosphopantetheinyl transferase ffp (Bacillus subtilis), Q9F4F7; Biochemical Sfp PPTase activity, qHTS; AID 1490, 2009; active = well fitted inhibition curve with a large enough effect; inconclusive = small, poorly fitted or top-dose-only effect, or another doubt; inactive = no such curve, though single readings can be large or run the other way;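 also: the enzyme is Sfp with the accession as filed and its product quenches rhodamine fluorescence; potency is read from the fitted curve at half-maximal effect; 0% = enzyme reaction without inhibitor and -100% = no enzyme wells; top concentration of the series not given in the record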
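Fluorescence-quenching assay: 15 nM Sfp-PPTase preincubated 15 min at room temperature with compound, then 5 uM rhodamine-CoA and 12.5 uM BHQ-2-labelled YbbR peptide added. Fluorescence (ex 525/em 598 nm) read at start and after 30 min; difference gives rate.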
Numbers without * were called inactive; ? = inconclusive; nt = not tested or not shown; [ ] = another dose, or the depositor's remark.

canonical_smiles,D2 potentiator,gsp antagonist,Menin-MLL FL inh,TRPV1 potentiator,gsp agonist,ClpP mod,Sfp inh
CCOC(=O)N1CCN(S(=O)(=O)/C=C/c2ccccc2)CC1,-12,?,0.0,-6,-68%[inhibitor],-0.3%,10%
Oc1c(Cl)cccc1C=Nc1cc(C(F)(F)F)ccc1N1CCCC1,-28,-3%,0.7,-3,-37%[inhibitor],-2.5%,?
Cc1ccc(S(=O)(=O)N2CCN(c3ccccc3)CC2)s1,-1,-13%,nt,nt,3%,0.3%,nt
CCSc1nnc(NC(=O)CSC2=NN3CCCC(=O)N=C3S2)s1,-6,-9%,-5.7,-53,4%,0.8%,-10%
Cc1cn2c(=O)c(C(=O)NCc3ccc4c(c3)OCO4)cnc2s1,-67,17%,nt,9,14%[15.4 µM],nt,nt
CC(=O)Nc1ccc2c(c1)nc(CCN1CCOCC1)n2C,-1,16%,2.8,-1,1%,-9.4%,16%
O=C(CCSCCc1ccncc1)NCCCN1CCOCC1,6,1%,2.8,0,3%,-1.0%,11%
S=C(Nc1ccccc1Cl)N1CCCC1,-11,-2%,2.5,-22,-16%,0.7%,21%
O=C(NCc1ccncc1)c1nnc(Cc2c(F)cccc2Cl)o1,26,5%,1.7,-3,18%,1.8%,4%
O=c1[nH]nc(Cc2ccc(-c3ccc(Cl)cc3)o2)c2ccccc12,3,-3%,nt,6,8%,-7.4%,56µM*
CCOC(=O)N1CCN(c2c(N3CCN(c4cccc(C)c4C)CC3)c(=O)c2=O)CC1,-6,0%,-4.1,-5,13%,1.6%,-3%
CC(C)c1[nH]nc2c1C(C1C=CCCC1)C(C#N)=C(N)O2 (stereo unspecified),-19,-7%,1.0,-3,5%,-1.2%,2%
OC(CNCc1ccccc1Cl)COc1ccc(F)cc1 (stereo unspecified),-20,8%,-0.3,11,-2%,nt,11%
CCN(CC)c1ccc(/C=N/Nc2ccccc2)c(O)c1,15,2%,-0.5,-3,?,-4.1%,56µM*
CCOc1ccc(S(=O)(=O)N(C)c2ccc(OCC(=O)NCC3CCCCC3)cc2)cc1,-3,-9%,nt,nt,0%[15.4 µM],-11%,nt
COCCn1cc(C(=O)NCCN(C)C)c2c3ccccc3n(C)c2c1=O,-11,-10%,-3.2,3,11%,4.5%,1%
CCN(CC)C(=O)C(=O)N/N=C/c1ccc(Br)cc1,0,9%,-0.3,11,4%,0.7%,8%
CC(=O)c1cccc(OCC(=O)N2CCCc3ccccc32)c1,-3,6%,3.2,-2,-4%,nt,5%
CCc1nnc(NC(=O)C(=O)NCCOC(=O)c2ccccc2Cl)s1,7,-11%,0.0,12,9%,0.2%,0%
CC(OC(=O)CCNS(=O)(=O)c1cccs1)C(=O)Nc1ccc(S(N)(=O)=O)cc1 (stereo unspecified),-1,-5%,nt,-2,?,0.1%,nt
CN(c1ccccc1)S(=O)(=O)c1ccc(Cl)nc1,-5,10%,2.9,-2,-11%[15.4 µM],nt,-1%
Cc1cc(OCC(=O)NCc2ccncc2)c2c(C)c(C)c(=O)oc2c1,1,-3%,nt,-19,?,nt,6%
Cc1ccc(-c2nnc(SCC(=O)Nc3ccccc3F)o2)cc1,-3,-5%,1.8,nt,-80%[inhibitor],-4.9%,5%
CCCCN(C)CCN1C(=O)C2C(C(=O)Nc3ccc(C)cc3)C3C=CC2(O3)C1C(=O)NC1CCCCC1 (stereo unspecified),-8,-16%,0.3,20,-10%[15.4 µM],nt,1%
Cc1ccccc1Oc1ccc2c(c1)[C@@H]1C[C@H](N(C)C(=O)c3ccco3)[C@H]([C@H](C)O)C(=O)N1CC2,0,nt,nt,nt,-42%[inhibitor],-0.9%,nt
Cc1c(NC(=O)Cc2noc3ccccc23)cccc1[N+](=O)[O-],0,5%,-0.2,2,8%,nt,14%
C/C(=N\NC(=O)c1nnn(-c2nonc2N)c1-c1ccccc1)c1cccnc1,15,-3%,nt,-1,-6%,-0.3%,10%
O=C(NC(O)C(=O)c1ccccc1)c1ccccn1 (stereo unspecified),-3,3%,-0.3,3,11%,nt,1%
CN(CC(=O)Nc1cccc(F)c1)C(=O)CSc1nc2ccccc2s1,-14,4%,nt,-21,-50%[inhibitor],1.3%,nt
Cc1ccc2c(c1)C1CN(C)CCC1N2S(=O)(=O)c1cc(C(F)(F)F)ccc1Cl (stereo unspecified),-5,10%,nt,-27,15%,-0.7%,nt
Cc1ccc(NC(=O)c2cnccn2)c(Br)c1,-5,8%,1.3,-7,53%[15.4 µM],1.1%,17%
O=C(CN1CCN(S(=O)(=O)c2ccc(Cl)cc2)CC1)Nc1ccc2c(c1)OCCO2,25,-15%,5.0,-2,6%,1.6%,16%
O=C(c1cccs1)n1nc(-c2ccccc2)nc1NCc1ccco1,0,-24%,4.3,-5,?,?,-12%
COc1ccc(OCC(=O)Nc2c(Cl)ccc3nsnc23)cc1,-10,-1%,nt,19,-14%,4.4%,17%
Cc1nn(C)cc1CNCc1c(C(=O)N2CCCCC2)nc2c(C)cccn12,-5,12%,-1.0,-6,-19%[15.4 µM],nt,12%
CCC(=O)Nc1cccc(-c2ccc(N3CCC(C)CC3)nn2)c1,-6,-14%,-0.6,-5,25%,-5.7%,6%
CC(=O)C1=C(O)C(=O)N(CCCCCC(=O)O)C1c1ccc(N(C)C)cc1 (stereo unspecified),10,-10%,5.8,26,-14%,-2.5%,-16%
Cc1nnc(NC(=O)CS(=O)(=O)Cc2ccccc2)s1,1,-5%,0.3,-3,0%,nt,6%
CN(CC(=O)Nc1cccc(F)c1)C(=O)/C=C/c1ccc(S(=O)(=O)N2CCCCCC2)cc1,15,-18%,nt,nt,-12%,0.2%,nt
O=C(NCC(=O)N1CCN(c2ccccc2O)CC1)c1ccc2c(c1)OCO2,-17,-12%,0.1,0,-7%,-7.4%,6%
Cc1nc(NC(=O)CSc2nnc(C3CC3)n2N)c(Cl)cc1Cl,-1,9%,nt,nt,13%,-1.4%,nt
N#Cc1c(N)n(-c2ccc(O)cc2)c2nc3ccccc3nc12,-1,-2%,2.0,14,-5%,nt,12%
CC(C)(C)C(=O)Nc1ccc(C(=O)Nc2cc(NC(=O)c3ccc(NC(=O)C(C)(C)C)cc3)cc(C(=O)O)c2)cc1,-4,-8%,-1.4,1,-4%[15.4 µM],0.6%,40%
CCOC(=O)C1(C(C)(C)CC)CC(CSc2nc3ccccc3[nH]2)OC1=O (stereo unspecified),-17,-32%,5.3,1,10%,-1.7%,17%
CC(C)(C)OC(=O)NCCc1onc(-c2ccc([N+](=O)[O-])cc2)c1C(=O)O,9,nt,nt,nt,2%,-0.3%,nt
O=C(C1=C[C@@H](c2ccc(C(F)(F)F)cc2)C[C@@H](OCCCCO)O1)N1CCOCC1,-8,1%,2.8,-15,-3%,-1.4%,9%
CCOP(=O)(Nc1cccc2oc(=O)c3ccccc3c12)OCC,-15,-7%,nt,nt,0%,11µM*,nt
O=C(CCC(=O)N1CCN(c2ccccc2F)CC1)c1ccc(F)cc1,-3,5%,5.9,nt,-12%[15.4 µM],nt,3%
COCCN(Cc1cc2cc(C)ccc2n2nnnc12)C(=S)Nc1ccc(C)cc1,-11,-2%,-4.9,1,25%,-0.6%,8%
NS(=O)(=O)c1ccc(NC(=O)COC(=O)c2ccc3c(c2)OCCO3)cc1,-4,11%,-2.5,2,5%[15.4 µM],1.2%,29%
O=C(c1ccc(COc2c(F)c(F)c(F)c(F)c2F)o1)N1CCOCC1,9,-7%,3.1,-35,?,0.4%,0%
O=C(Nc1ccccc1)Nc1nnc(-c2ccccc2)s1,-3,8%,1.0,0,12%,-17%,3%
COc1cccc(NC(=O)CN(C)C(=O)c2cccnc2Sc2ccc(C)c(C)c2)c1,-7,-9%,nt,18,0%,?,nt
CC12COC3(C(=O)Nc4ccccc4)CC1CCC32C (stereo unspecified),-6,-3%,-0.4,-13,1%,-1.0%,3%
COc1ccccc1C(=O)Nc1c2c(nn1-c1ccc([N+](=O)[O-])cc1)CS(=O)(=O)C2,-16,17%,2.1,3,?,0.6%,9%
CCCCNC(=O)N(O)C1N(/N=C/c2cccs2)C(=S)SC1(C)C (stereo unspecified),-5,-2%,3.6,-1,-30%,nt,4%

(further entries)
canonical_smiles,D2 potentiator,gsp antagonist,Menin-MLL FL inh,TRPV1 potentiator,gsp agonist,ClpP mod,Sfp inh
CC[C@@H](NS(=O)(=O)c1ccc(C)cc1)C(=O)Oc1ccc2c3c(c(=O)oc2c1)CCC3,1,?,-1.8,8,-10%,92%,0%
N#Cc1ccc(COc2ccc(CCO)cc2-n2nc3ccccc3n2)cc1,13,-16%,5.6,-1,?,?,-11%
CCOC(=O)c1nc(Nc2ccc(OC)cc2)c2ccccc2n1,-1,-17%,-5.3,-19,18%,0.0%,-3%
O=S(=O)(NC1CCCCC1NS(=O)(=O)c1ccc(F)cc1)c1ccc(F)cc1 (stereo unspecified),2,0%,-0.3,1,-32%[inhibitor],-2.1%,7%
O=C(O)CCCNC(=O)c1ccccn1,15,11%,0.4,6,-13%,1.1%,11%
N#Cc1cc2c(nc1SCc1ccc(Cl)nc1)CCCCC2,-2,13%,6.7,7,7%[15.4 µM],nt,-2%
Cc1c(NC(=O)C(C)OC(=O)c2c3c(nc4ccccc24)CCC3)c(=O)n(-c2ccccc2)n1C (stereo unspecified),-1,4%,4.2,11,-11%[15.4 µM],0.8%,15%
